Sa growth 42C: S. aureus growth inhibition; 170,000 compounds, 0.53% hits; S. aureus RN4220 growth, OD600, 20 h, 42 °C; active compounds read low; relative growth, % (test concentration not listed);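 active = growth at 42 °C up to 50% and 20 or more points under that at 30 °C, or under 10% at both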;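 also: 300 nL library stock went into each well; scaled to the means of positive and negative controls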
GIV-Gai inh: inhibitors of GIV GBA-motif binding to rat Galpha-i3 | Galpha-i3/FITC-GIV peptide fluorescence polarization, 90 min; active compounds read low; scaled: aluminum fluoride 0%, vehicle 100% | percent of control (FP), % (concentration not given with the values) | 210,000 compounds, 0.42% hits | AID 1224905;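 active = replicate mean at 85% of control or lower, very high polarization wells dropped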;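 also: wells of about 15 µL received 100 nL stock; the first replicate is given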
Target sequence (P08753 whole entry, looked up): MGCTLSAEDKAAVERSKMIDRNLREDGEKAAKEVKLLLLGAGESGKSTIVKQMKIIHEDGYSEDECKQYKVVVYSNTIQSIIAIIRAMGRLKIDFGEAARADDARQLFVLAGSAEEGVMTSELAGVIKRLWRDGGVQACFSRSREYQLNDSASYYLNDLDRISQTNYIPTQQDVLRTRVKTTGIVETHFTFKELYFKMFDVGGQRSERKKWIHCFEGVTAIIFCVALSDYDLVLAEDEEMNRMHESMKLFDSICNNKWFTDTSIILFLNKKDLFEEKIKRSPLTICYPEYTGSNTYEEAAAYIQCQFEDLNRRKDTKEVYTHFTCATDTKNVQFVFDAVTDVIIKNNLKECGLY
HCMV NEC inh: disrupts HCMV UL50-UL53 complex binding; HTRF UL50-UL53 interaction, normalized percent inhibition; 190,000 compounds, 0.15% hits; inhibition, % (test concentration not listed); AID 1918969;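 active = both replicates at 50% or more, plus weaker picks with an unusually low signal ratio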;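 also: stock transfer was 100 nL into about 20 µL; 0% = negative control wells and 100% = wells with untagged competitor protein; inactives centre near -12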
Sa growth 42C second temp: second read-out of Sa growth 42C, no call of its own (marks repeat the call); relative growth, %; measured here: growth at 30 °C;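 optical density after 20 h as mean of two plates; 100% = untreated growth and lower means inhibition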
Starred values were filed as active, the others as inactive; & = joins results of further samples.

CCS(=O)(=O)N1CCCc2cc(NS(C)(=O)=O)ccc21 was read as GIV-Gai inh 106 and HCMV NEC inh -8.
Screening O=C(O)CCCOc1ccc2c(c1)OCO2 returned Sa growth 42C 91, GIV-Gai inh 100, HCMV NEC inh -18 and Sa growth 42C second temp 77.
`CCOC(=O)c1c(C)[nH]c(C)c1S(=O)(=O)N1CCCC(C(=O)NCCC2=CCCCC2)C1` (stereo unspecified) gave GIV-Gai inh 106 and HCMV NEC inh -3.
`C=CCn1ncc(CO)c1C` gave Sa growth 42C 93, GIV-Gai inh 104, HCMV NEC inh -23 and Sa growth 42C second temp 83.
For CS(=O)(=O)Nc1ccc(N2CCOCC2)c(C(=O)O)c1 the results were GIV-Gai inh 97 and HCMV NEC inh -10.
Screening Nc1nc(CSc2ccccn2)nc(Nc2ccccc2)n1 returned Sa growth 42C 104, GIV-Gai inh 101, HCMV NEC inh -12 and Sa growth 42C second temp 72.
Screening Cc1cc(C)cc(NC(=O)Cn2nnc(C(=O)NCCc3ccccc3)c2N)c1 returned Sa growth 42C 110, GIV-Gai inh 103, HCMV NEC inh -16 and Sa growth 42C second temp 90.
`O=C(c1ccccc1)c1ccccc1N1C(=O)C=CC1=O` gave Sa growth 42C 78, GIV-Gai inh 107, HCMV NEC inh -9 and Sa growth 42C second temp 42.
Screening Cc1cc(Cl)ccc1NC(=O)CN1C(=O)COc2ccc(S(=O)(=O)N3CCC(C)CC3)cc21 returned Sa growth 42C 89, GIV-Gai inh 108 and Sa growth 42C second temp 72.
COc1ccc(CNC(=O)CCc2c(C)nc3cc(-c4ccc(OC)cc4OC)nn3c2C)cc1 was read as Sa growth 42C 116, GIV-Gai inh 103, HCMV NEC inh -24 and Sa growth 42C second temp 90.
O=C(CCC1N=C2c3ccccc3N=C(SCC(=O)Nc3ccccc3F)N2C1=O)NCc1ccco1 (stereo unspecified) was read as Sa growth 42C 103, GIV-Gai inh 106, HCMV NEC inh -15 and Sa growth 42C second temp 88.
`COc1ccc(Cl)cc1NCC(=O)Nc1ccc2c(c1)OCCO2` gave Sa growth 42C 105, HCMV NEC inh -29 and Sa growth 42C second temp 101.
Screening COc1cc(-c2noc(CCC(=O)Nc3cccc(C)c3C)n2)cc(OC)c1OC returned Sa growth 42C 102, GIV-Gai inh 103, HCMV NEC inh -3 and Sa growth 42C second temp 85.
`COc1cccc(-n2c(SCC(=O)Nc3ccc(F)cc3F)nc3c([nH]c4ccccc43)c2=O)c1` gave Sa growth 42C 110, GIV-Gai inh 107 and Sa growth 42C second temp 98.
For CN1CC(=O)NC1=NC(=O)c1cc(F)c(F)cc1Cl the results were Sa growth 42C 85, HCMV NEC inh -27 and Sa growth 42C second temp 83.
`CC(C)=NOC(=O)Nc1ccc(Cl)cc1` gave Sa growth 42C 90, GIV-Gai inh 95, HCMV NEC inh -17 and Sa growth 42C second temp 86.
O=C(O)c1cc(=O)c2cc(Cl)ccc2o1 was read as Sa growth 42C 80, HCMV NEC inh -15 and Sa growth 42C second temp 91.
Screening CC1CCCC(NC(=O)COC(=O)COc2ccccc2C#N)C1C (stereo unspecified) returned Sa growth 42C 100, HCMV NEC inh -10 and Sa growth 42C second temp 99.
COc1cc2ccccc2nn1 was read as Sa growth 42C 97, GIV-Gai inh 110, HCMV NEC inh -75 and Sa growth 42C second temp 92.
CC(C)NC(=O)c1ccc2c(c1)N(Cc1ccc(Cl)cc1)C(=O)c1ccccc1S2=O (stereo unspecified) was read as Sa growth 42C 96, GIV-Gai inh 102, HCMV NEC inh -9 and Sa growth 42C second temp 89.

Entries listed so far containing fluorine, in the order listed:
O=C(CCC1N=C2c3ccccc3N=C(SCC(=O)Nc3ccccc3F)N2C1=O)NCc1ccco1 (stereo unspecified) was read as Sa growth 42C 103, GIV-Gai inh 106, HCMV NEC inh -15 and Sa growth 42C second temp 88.
`COc1cccc(-n2c(SCC(=O)Nc3ccc(F)cc3F)nc3c([nH]c4ccccc43)c2=O)c1` gave Sa growth 42C 110, GIV-Gai inh 107 and Sa growth 42C second temp 98.
For CN1CC(=O)NC1=NC(=O)c1cc(F)c(F)cc1Cl the results were Sa growth 42C 85, HCMV NEC inh -27 and Sa growth 42C second temp 83.

Going on with the list:
`Cc1ccc(C2CC(=O)N(Cc3ccccc3F)c3c2c(C)nn3-c2nc(C)cc(C)n2)cc1` (stereo unspecified) gave Sa growth 42C 106, GIV-Gai inh 101, HCMV NEC inh -4 and Sa growth 42C second temp 92.
`COc1ccc(NC(=S)N(C(C)C)C2CCN(C(C)C)CC2)cc1Cl` gave Sa growth 42C 113, GIV-Gai inh 103 and Sa growth 42C second temp 82.
`Cc1c(S(=O)(=O)NCc2ccc(S(N)(=O)=O)cc2)sc2ccc(Cl)cc12` gave Sa growth 42C 119, GIV-Gai inh 98, HCMV NEC inh -7 and Sa growth 42C second temp 66.
`COc1ccccc1N1CCN(C(=O)c2nc(S(=O)(=O)Cc3ccccc3)ncc2Cl)CC1` gave Sa growth 42C 16, GIV-Gai inh 104, HCMV NEC inh -16 and Sa growth 42C second temp 1.
Screening CCCCCCOc1ccc(C2Oc3ccc(OC)cc3C3CC(c4ccc(OC)cc4)=NN32)cc1 (stereo unspecified) returned GIV-Gai inh 99 and HCMV NEC inh -15.
O=C(NC1CCCC1)c1c[nH]c2ccc(S(=O)(=O)Nc3ccccc3F)cc2c1=O was read as Sa growth 42C 120, GIV-Gai inh 104 and Sa growth 42C second temp 68.
CN(c1ncc(C(F)(F)F)cc1Cl)n1cccc1 was read as GIV-Gai inh 102 and HCMV NEC inh -7.
`Cc1nc2sc3c(N4CCC(C)CC4)ncnc3c2c2c1COC(C)(C)C2` gave GIV-Gai inh 104 and HCMV NEC inh 1.
`CSc1cccc(N2CC(C(=O)N3CCN(S(=O)(=O)Cc4ccccc4)CC3)CC2=O)c1` (stereo unspecified) gave Sa growth 42C 90, HCMV NEC inh -20 and Sa growth 42C second temp 94.
For O=C(c1cc(=O)[nH]c2ccccc12)N(Cc1ccco1)Cc1cccs1 the results were Sa growth 42C 93, HCMV NEC inh -14 and Sa growth 42C second temp 84.

Ordered by heavy-atom count (largest number first): 3 of the compounds above.
`COc1ccccc1N1CCN(C(=O)c2nc(S(=O)(=O)Cc3ccccc3)ncc2Cl)CC1` gave Sa growth 42C 16, GIV-Gai inh 104, HCMV NEC inh -16 and Sa growth 42C second temp 1.
For O=C(c1cc(=O)[nH]c2ccccc12)N(Cc1ccco1)Cc1cccs1 the results were Sa growth 42C 93, HCMV NEC inh -14 and Sa growth 42C second temp 84.
Screening O=C(O)CCCOc1ccc2c(c1)OCO2 returned Sa growth 42C 91, GIV-Gai inh 100, HCMV NEC inh -18 and Sa growth 42C second temp 77.

Following part:
For O=C(Cn1ccc2cc(S(=O)(=O)N3CCCC3)ccc21)NCCc1ccc(Cl)cc1 the results were GIV-Gai inh 102 and HCMV NEC inh 3.
For O=C(CCN(CC1CCCO1)C(=O)c1ccc(Cl)cc1)N1CCNCC1 (stereo unspecified) the results were GIV-Gai inh 98 and HCMV NEC inh -14.
`CCn1c(=O)cc(SCC(=O)NC(C)C)c2ccccc21` gave Sa growth 42C 88, GIV-Gai inh 100, HCMV NEC inh 3 and Sa growth 42C second temp 96.
For COc1ccc(CC(=O)NCc2ccc3[nH]c4c(c3c2)CCCC4)cc1 the results were Sa growth 42C 99, GIV-Gai inh 98 and Sa growth 42C second temp 74.
For Cc1ccc(NC(=O)C(c2ccccc2)N2CCCCC2)cc1 (stereo unspecified) the results were Sa growth 42C 95, HCMV NEC inh -8 and Sa growth 42C second temp 99.
Screening CCOC(=O)C1=C(C)N=c2s/c(=C3\C(=O)N(CC)c4ccccc43)c(=O)n2C1/C=C/c1ccccc1 (stereo unspecified) returned GIV-Gai inh 103 and HCMV NEC inh -7.
NC(=O)NC(=O)CC1S/C(=N/N=C/c2ccccc2)NC1=O (stereo unspecified) was read as Sa growth 42C 91, GIV-Gai inh 105, HCMV NEC inh -46 and Sa growth 42C second temp 93.
`O=C(NCc1cccc(F)c1)c1ccc(-n2cnc3cccnc32)cc1` gave Sa growth 42C 102, GIV-Gai inh 104 and Sa growth 42C second temp 98.
Screening COC(=O)C(Cc1csc2ccc(Cl)cc12)NC(=O)c1ccc(C(F)(F)F)cc1 (stereo unspecified) returned Sa growth 42C 74, GIV-Gai inh 103, HCMV NEC inh -44 and Sa growth 42C second temp 76.
`Cc1ccc(-n2ncc(C(=O)NCCCN3CCc4ccccc4C3)c2C2CCN(C(=O)OC(C)(C)C)CC2)cc1C` gave Sa growth 42C 107, GIV-Gai inh 106 and Sa growth 42C second temp 77.
For CC1CCCC(C)N1C(=O)c1cc(-c2ccccc2)n[nH]1 (stereo unspecified) the results were GIV-Gai inh 95 and HCMV NEC inh -22.
`CN(C)Cc1ccccc1CNC(=O)CCC1CCCC1` gave Sa growth 42C 98, HCMV NEC inh -6 and Sa growth 42C second temp 90.
Screening Cc1cc2c(cc3c(SCc4ccccc4)nncn32)o1 returned Sa growth 42C 93, GIV-Gai inh 102 and Sa growth 42C second temp 62.
`CC(C)CC(=O)N1CCN(S(=O)(=O)c2ccccc2)CC1` gave Sa growth 42C 115, GIV-Gai inh 105, HCMV NEC inh -2 and Sa growth 42C second temp 110.
Screening N#Cc1sc2sc(C#N)c(-c3ccco3)c2c1N returned Sa growth 42C 117, GIV-Gai inh 105, HCMV NEC inh 32 and Sa growth 42C second temp 68.
Screening CC(C)Nc1ccc(-c2nc(-c3ccco3)no2)cc1[N+](=O)[O-] returned Sa growth 42C 97, GIV-Gai inh 90, HCMV NEC inh -4 and Sa growth 42C second temp 86.
Screening COc1ccc(C(=O)On2c(-c3ccccc3F)nc3ccccc3c2=O)cc1Br returned GIV-Gai inh 103 and HCMV NEC inh -6.
Screening COc1cccc(-c2cc(C(=O)N3CCN(C(=O)c4ccco4)CC3)on2)c1 returned Sa growth 42C 108, GIV-Gai inh 107 and Sa growth 42C second temp 86.
`O=C(O)C1CCC(=O)N1C1CCCC1` (stereo unspecified) gave Sa growth 42C 87, GIV-Gai inh 105, HCMV NEC inh 5 and Sa growth 42C second temp 94.
`O=C(Nc1ccccc1-c1nc(-c2ccc(Cl)cc2)no1)C(F)(F)F` gave Sa growth 42C 106, GIV-Gai inh 99 and Sa growth 42C second temp 94.
Screening N#CCCn1cc(/C=N/NC(=O)c2cnccn2)c2ccccc21 returned Sa growth 42C 111, HCMV NEC inh -91 and Sa growth 42C second temp 88.
Cc1ccc(N(Cc2nnc(SCC(=O)Nc3cc(Cl)ccc3O)n2C)S(C)(=O)=O)cc1 was read as GIV-Gai inh 111 and HCMV NEC inh -15.
O=C(CSc1ccccn1)Nc1ccc(OC(F)(F)F)cc1 was read as Sa growth 42C 95, GIV-Gai inh 108, HCMV NEC inh -2 and Sa growth 42C second temp 87.
Screening O=C(NCc1ccccc1)c1cccc(S(=O)(=O)N2CCN(c3ccccc3)CC2)c1 returned Sa growth 42C 113, HCMV NEC inh -16 and Sa growth 42C second temp 98.
CCC1CCCCN1C(=O)/C=C/c1ccc(C)cc1 (stereo unspecified) was read as Sa growth 42C 100, GIV-Gai inh 108, HCMV NEC inh -5 and Sa growth 42C second temp 91.
For Cc1ccc(S(=O)(=O)NCC2OCCc3ccccc32)cc1 (stereo unspecified) the results were Sa growth 42C 114, GIV-Gai inh 103 and Sa growth 42C second temp 83.
For C[C@@H](CN1CCC(Cc2ccccc2)CC1)[C@@H](O)c1ccc(O)cc1 the results were GIV-Gai inh 106 and HCMV NEC inh -4&-18.
Screening CCc1cc(=O)[nH]c(SCc2cccc(Cl)c2)n1 returned GIV-Gai inh 101 and HCMV NEC inh -14.
O=c1[nH]nc(N2CCN(c3nc(CSc4ccccc4)nc4sc5c(c34)CCC5)CC2)c(=O)[nH]1 was read as Sa growth 42C 80, HCMV NEC inh -21 and Sa growth 42C second temp 81.
CCOC(=O)c1ccccc1NC(=O)CSc1nc2ccncc2[nH]1 was read as Sa growth 42C 101, GIV-Gai inh 102, HCMV NEC inh -1 and Sa growth 42C second temp 91.
`O=C(Nc1ccc(F)c(F)c1)c1ccc(-n2nc(OCc3ccc(Cl)cc3)ccc2=O)cc1` gave GIV-Gai inh 109 and HCMV NEC inh -5.
CSc1ccc(CN2CCOCC2)cc1 was read as Sa growth 42C 124, HCMV NEC inh 2 and Sa growth 42C second temp 89.
For CC1=C(C(=O)Nc2ccc(Br)cn2)C(c2ccc([N+](=O)[O-])cc2)C2=C(CCCC2=O)N1 (stereo unspecified) the results were GIV-Gai inh 104 and HCMV NEC inh -18.
Screening CCn1c(SCc2ccc(C#N)cc2)nnc1-c1ccco1 returned Sa growth 42C 97, HCMV NEC inh -41 and Sa growth 42C second temp 90.
For CCc1ccc(NC(=O)Nc2cccc(-c3nnc(-c4ccccc4)o3)c2)cc1 the results were GIV-Gai inh 98 and HCMV NEC inh -19.
For O=C(CC(c1ccccc1)c1ccccc1)N1CCN(c2ccccn2)CC1 the results were Sa growth 42C 101, GIV-Gai inh 99, HCMV NEC inh -8 and Sa growth 42C second temp 78.
Screening CCOC(=O)c1nc(Cn2cc(I)cn2)no1 returned Sa growth 42C 88, GIV-Gai inh 101, HCMV NEC inh 12 and Sa growth 42C second temp 100.
For CN(Cc1ccccc1)Cc1cc(=O)n2[nH]c(-c3ccccc3)nc2n1 the results were GIV-Gai inh 95 and HCMV NEC inh -24.
For O=C(O)CNc1nc(-c2ccccc2)nc2ccccc12 the results were Sa growth 42C 97, HCMV NEC inh -23 and Sa growth 42C second temp 93.
`COC(=O)CC(=O)N1CCN(c2ccc(Cl)c(Cl)c2)CC1` gave GIV-Gai inh 105 and HCMV NEC inh -2.

High-throughput results (PubChem BioAssay)
